ClpP mod = qHTS Assay for Activators of ClpP. ATP-dependent Clp protease proteolytic subunit (Bacillus subtilis (strain 168)), P80244. purified B. subtilis ClpP, FRET peptide cleavage, 20 min. Potency, µM (highest dose often 57.5 µM), for the others: at the highest dose activity change, negative = active. 340,000 compounds, 1.9% hits. AID 651965, 2013; active = well fitted falling curve with a large enough effect; inconclusive = small, poorly fitted or top-dose-only effect; inactive = no such curve, though single readings can be large or run the other way; also: potency is read from the fitted curve at half-maximal effect; the source files actives as falling curves though it sought activators and does not explain the sign; nearly all actives have a fitted effect of over 65% in size; many hits overshoot -100%
Target sequence (P80244 whole entry, looked up): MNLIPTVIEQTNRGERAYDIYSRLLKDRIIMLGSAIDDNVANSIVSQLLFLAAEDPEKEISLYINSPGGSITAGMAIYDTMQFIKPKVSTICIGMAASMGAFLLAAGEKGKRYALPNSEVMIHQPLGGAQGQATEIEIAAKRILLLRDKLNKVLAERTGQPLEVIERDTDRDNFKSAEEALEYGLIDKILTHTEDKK
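ClpP 10 microg/mL final, pH 8 Tris/KCl buffer with BSA, glycerol, Tween-20; compound pinned in; FRET-FV substrate; RT 20 min; Ex320/Em430; ΔFRET vs ADEP 5.8 microM, DMSO, no enzyme.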
Menin MLL FP FL = inhibitors of human menin-MLL interaction, wild-type MLL peptide; FP activity change, % at 61.4 µM; Fluorescence polarization, fluorescein-MLL peptide displacement from menin; AID 1766; 290,000 tested, under 10 active; inconclusive = falling polarisation curve, or a change in total fluorescence; inactive = total fluorescence flat and polarisation flat or rising; no compound was filed as active; the % refers to the polarisation; negative = inhibition;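 also: % of control where 0% means no effect; inhibitors lower the polarisation; unlabelled MLL peptide was the positive control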
gsp ag = gsp mutant agonism. gsp mutant cells, cAMP HTRF, 30 min; control for the full effect not named in the record. Potency, µM (highest dose often 76.9 µM), inactives show at the highest dose activation (cAMP increase), actives largely listed as activators. 340,000 compounds, 0.13% hits. AID 624287; active = well fitted activation curve with a large enough effect; inconclusive = small, poorly fitted or top-dose-only effect, or another doubt; inactive = no such curve, though single readings can be large or run the other way; cell line not stated here;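 also: phosphodiesterase inhibitor Ro 20-1724 added with compounds to block cAMP breakdown; potency is read from the fitted curve at half-maximal effect; nearly all actives have a fitted effect of over 60% in size; about a fifth of the inactives were tested at one dose only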
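Cells stably selected in G418 were plated at 2000/well, grown 16-24 hr, then given compounds in DMSO with the PDE inhibitor […] (300 uM solution added) for 30 min at 37C; cAMP was read by HTRF.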
TRPML1 ag = agonists of human TRPML1 channel; activation, % (concentration not given with the values); TRPML1-expressing cells, Ca2+ dye fluorescence, FDSS; host cell line not named in the record; reference of the full effect not given here; AID 624414; 410,000 compounds, 0.12% hits; in the data active = activation above about 50%; inconclusive = about 30% to 50%; inactive = below about 30%; also: 0% is about no effect; the text of the record puts the active cut at 80%
Target sequence (Q9GZU1 whole entry, looked up): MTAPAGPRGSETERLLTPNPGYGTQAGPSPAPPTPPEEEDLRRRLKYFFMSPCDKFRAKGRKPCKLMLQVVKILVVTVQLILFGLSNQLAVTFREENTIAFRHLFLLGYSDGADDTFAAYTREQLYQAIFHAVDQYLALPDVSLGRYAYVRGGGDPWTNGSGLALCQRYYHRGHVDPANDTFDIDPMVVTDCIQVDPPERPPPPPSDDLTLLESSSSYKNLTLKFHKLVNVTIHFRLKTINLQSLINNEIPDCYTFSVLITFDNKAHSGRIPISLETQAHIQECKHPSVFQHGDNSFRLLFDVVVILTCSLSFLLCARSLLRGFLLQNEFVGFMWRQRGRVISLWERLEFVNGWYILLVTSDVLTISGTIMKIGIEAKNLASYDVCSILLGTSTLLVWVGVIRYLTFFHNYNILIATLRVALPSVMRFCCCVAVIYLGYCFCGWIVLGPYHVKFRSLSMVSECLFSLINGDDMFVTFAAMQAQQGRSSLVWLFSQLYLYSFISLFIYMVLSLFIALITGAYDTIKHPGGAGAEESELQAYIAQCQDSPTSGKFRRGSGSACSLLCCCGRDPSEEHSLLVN
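Kinetic FDSS Ca2+ read in Tet-induced TRPML1-DL cells (ABD Ca8 dye plus quencher, 45-90 min RT loading): baseline, then compound, then 110 s agonist window; EC80 agonist 54-4 at 4uM final added afterwards for a 110 s antagonist window.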
gsp antagonist = gsp mutant antagonism; gsp-mutant cells, cAMP HTRF, 30 min; control for the full effect not named in the record; Potency, µM (top dose mostly 76.9 µM), for the others: at the top dose activity change, negative = inhibition, actives largely listed as inhibitors; 340,000 compounds, 0.4% hits; active = falling curve of any shape with a large fitted effect; inconclusive = falling curve, mostly with a smaller effect; inactive = flat or rising curve; cell line not stated here;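 also: intracellular cAMP measured with PDE inhibitor Ro 20-1724 present during compound exposure; potency is read from the fitted curve at half-maximal effect; % is scaled to controls: 0 for no effect and ±100 for the full control effect; nearly all actives have a fitted effect of over 65% in size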
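HTRF cAMP measurement after 30 min RT detection following 30 min, 37C compound treatment alongside […] (added as 300 uM solution) in G418-selected cells seeded at 2000/well and grown 16–24 h.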
TRPML1 inh = inhibitors of human TRPML1 channel | AID 624415 | activity change, negative = inhibition, % (no concentration beside the values) | 390,000 compounds, 0.02% hits | TRPML1-inducible cells, Ca2+ dye fluorescence, FDSS; stronger effect = lower value; inhibition of EC80 agonist-evoked calcium signal; in the data active means activity change below about -50%; inconclusive means about -30% to -50%; inactive means above about -30%;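 also: stimulus is agonist 54-4 at its EC80 concentration; % is scaled to controls: 0 for no effect and ±100 for the full control effect; compound concentration not given in the record; the text of the record puts the active cut at -80%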
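Calcium fluorescence in TRPML1-DL cells induced overnight with Tet: a 110 s read after compound pin addition, then a 110 s antagonist read after challenge with 54-4 at 4 uM final (EC80).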
Active calls of the source: *; ? = inconclusive; . = not tested or not shown; & = joins results of further samples; [ ] = dose if it differs, or a comment.

item	SMILES	ClpP mod	Menin MLL FP FL	gsp ag	TRPML1 ag	gsp antagonist	TRPML1 inh
1	COc1cc(COCC(O)CN2CCN(CCN3C(=O)c4cccc5cccc(c45)C3=O)CC2)cc(OC)c1OC (configuration not stated)	-12%	1.2	0%	1.8	-6%	13
2	O=C(NNC(=O)c1cc(-c2ccco2)nc2ccccc12)c1ccccc1	.	9.6	-15%[15.4 µM]	-0.3	-8%	2
3	Cc1[nH]nc2c1C(c1ccccc1)C1=C(CC(C)(C)CC1=O)N2 (configuration not stated)	28µM*	2.1	6%	-0.5	2%	28
4	CC1(C)CC(NC(=S)NC2CC2)CC(C)(C)N1	35µM*	-0.3	-4%[15.4 µM]	-0.7	-3%	5
5	COc1ccc(CN(C)C(=S)Nc2ccc(Cl)cc2)cc1	-3.9%	-7.1	-12%	-0.2	0%	?
6	O=C(NCc1cccc(Cl)c1)C1CCN(S(=O)(=O)c2ccc(F)cc2)CC1	0.1%	.	-60%[inhibitor]	0.8	5%	-1
7	Cc1nn(C)cc1/C=C1\SC(=S)NC1=O	0.1%	-0.8	-3%	-0.2	-16%	-8
8	COc1ccc(OCCC(=O)OCC(=O)NCCc2ccccc2)cc1	.	3.8	-12%[15.4 µM]	1.3	8%	-12
9	CCn1nc(C)c(CNC(=O)CC2C(=O)NCCN2Cc2ccc(C)o2)c1C (configuration not stated)	-3.3%	-6.0	-35%[inhibitor]	0.8	5%	5
10	CC1=C(C)CC(C(=O)NNC(=O)c2csc(C)c2C)C(C(=O)O)C1 (configuration not stated)	-0.6%	4.1	4%	-0.1	9%	14
11	S=C(NCCN1CCOCC1)NC1CCCCC1	.	0.6	13%	1.2	6%	8
12	N#C/C(=C/c1ccc(N2CCOCC2)o1)C(=O)NC1CCCCC1	-0.6%	?	-32%[inhibitor]	?	-18%	1
13	O=C(O)CCCn1c(O)c(C=C2N=c3ccccc3=N2)sc1=S	-0.8%	16	16%	0.6	?	-1
14	Cc1ccc(NC(=O)Cc2ccc(Cl)c(Cl)c2)cc1S(=O)(=O)N(C)C	-4.9%	6.4	-4%	-0.4	?	8
15	CCN(c1ccccc1)S(=O)(=O)c1cc2c3c(c1)C(C)C(=O)N3CCC2 (configuration not stated)	0.5%	-0.2	-46%[inhibitor]	-1.0	-13%	6
16	CC(NC(=O)OC1CCCCC1)N1C(=O)C2C3C=CC(C3)C2C1=O (configuration not stated)	-1.4%	4.7	?	-0.3	20%	2
17	CCN(CC)S(=O)(=O)c1ccc(N2CCCC2)c(NC(=O)C2CSC3(C)CCC(=O)N23)c1 (configuration not stated)	0.2%	.	9%	-1.4	1%	3
18	Cc1nn(-c2ccccc2)c(-n2cccc2)c1C(=O)N1CCN(c2ccccc2)CC1	0.1%	.	.	0.0	.	0
19	Cc1ccc(-c2cc(C(F)F)n3ncc(C(=O)Nc4cn(C)nc4C)c3n2)cc1	-1.6%	-2.4	-30%	0.6	-1%	-12
20	Cc1ccc(N2CCOCC2)c2c1C(=O)c1ccccc1C2=O	60%	0.1	10%	2.2	-18%	7
21	CCN(CC(=O)Nc1c(F)cccc1F)C(=O)CCCOc1ccc(OC)cc1	0.2%	.	-60%[inhibitor]	-1.1	9%	13
22	Cn1cc(S(=O)(=O)CC(=O)N2CCc3ccccc32)c2ccccc21	-2.1%	3.1	?	-0.3	-3%	-10
23	CCc1ccc(NC(=O)CSc2nc3c(c(=O)[nH]2)CN(Cc2ccc4c(c2)OCO4)CC3)cc1	-4.6%	.	.	-0.4	.	10
24	COc1ccc(C2/C=C\CN(S(=O)(=O)/C=C/c3ccccc3)CC(=O)N2Cc2ccc(F)cc2)cc1 (configuration not stated)	-3.6%	6.4&-4.3	.	0.4&0.6	0%	23&25
25	Cc1sc2ncnc(NCC3(N4CCOCC4)CCCCC3)c2c1C	1.8%	0.2	-1%	1.0	-6%	7
26	Cc1ccc(OCC(=O)Nc2ccc(S(=O)(=O)Nc3ncccn3)cc2)c(C(C)(C)C)c1	-1.0%	.	.	0.5	.	4
27	CN(Cc1ccccc1)C(=O)CCS(=O)(=O)c1ccc2c(c1)NC(=O)CS2	-0.3%	-1.2	18%	-0.2	-1%	3
28	COc1cc2c(cc1OC)C(C(=O)Nc1ccc(F)c(Cl)c1)CC(=O)N2 (configuration not stated)	0.3%	-0.1	-22%	0.1	9%	-8
29	COc1ccc(NS(=O)(=O)c2cccc(-c3nnc(-c4ccccc4)o3)c2)cc1	1.1%	-2.1	6%	3.0	?	2
30	O=C(Nn1c(C2CC2)nc2ccccc2c1=O)c1ccco1	1.1%	5.9	7%	-0.7	-11%	4
31	Cn1c(N)c(C(=O)CSc2nn(-c3ccccc3)c(=S)s2)c(=O)n(C)c1=O	.	.	90%[15.4 µM]	1.2	13%	-2
32	CC(C)c1ccc(/C=N/NC(=O)c2cccc(Cl)c2)cc1	-1.7%	-0.7	13%	4.2	12%	10
33	CCc1ccc(CNC(=O)c2ccc3c(c2)nc2n3CCC(C)C2)cc1 (configuration not stated)	-1.3%	.	.	3.6	.	-24
34	O=C(Nc1ccc(-c2ccccc2)cc1)c1ccccc1	0.7%	3.1	-15%	3.0	-3%	2
35	O=C(NCc1cccnc1)C1CCCN(S(=O)(=O)c2ccccc2)C1 (configuration not stated)	-2.6%	4.8	-37%[inhibitor]	0.2	4%	-6
36	O=C(NCc1ccc(F)cc1)c1ccncc1	-2.7%	6.8	-24%	-0.9	10%	-1
37	N#CC1=C(N)C(C#N)(C#N)[C@H](c2ccoc2)[C@H]2CN(Cc3ccccc3)CC=C12	-3.8%	?	-8%	1.1	13%	-7
38	Cc1c(C)c2ccc(OCC(=O)Nc3ccc(CN4CCOCC4)cc3)cc2oc1=O	3.7%	-3.0	-8%	-0.9	-4%	-10
39	O=C(COC(=O)CCC(=O)c1ccc(F)cc1)Nc1ccccc1	1.4%	-3.6	-2%[15.4 µM]	-1.5	-7%	-15
40	COc1cc(C(=O)NC(=S)Nc2ccc(Cc3ccncc3)cc2)cc(OC)c1OC	1.6%	-1.0	-71%[inhibitor]	.	32µM*	.
41	C[C@H]1CCCCO[C@H](CN(C)S(=O)(=O)c2cn(C)cn2)[C@@H](C)CN([C@@H](C)CO)C(=O)c2cc(NS(=O)(=O)c3ccccc3)ccc2O1	-0.9%	.	-35%	-0.6	.	-8
42	COc1cccc(NC(=O)CCc2nnc3n(CC(C)C)c(=O)c4ccccc4n23)c1	-2.7%	.	.	-0.4	.	3
43	CC(C)Oc1ccc(Cc2n[nH]c(=S)n2Cc2ccccc2)cc1Cl	-0.9%	-3.5	2%	.	-10%	.
44	CCOc1ccc(N(CC(=O)Nc2ccccc2)S(C)(=O)=O)cc1	-1.1%	1.3	7%	0.9	-1%	7
45	C=CCc1cc(/C=C2/NC(=O)N(CC(=O)OC)C2=O)cc(OC)c1O	.	16	-16%	1.2	-11%	-1
46	CC(C)CN(CCCNC(=O)CN1C(=O)COc2ccc(S(=O)(=O)N3CCCCCC3)cc21)CC(C)C	1.3%&0.3%	.	-42%	-0.7&1.2	2%	-2&30
47	Clc1nc2ccccc2nc1-c1ccccc1	.	-0.2	2%[15.4 µM]	-0.7	8%	-15
48	COc1ccc(Cn2cc(C(=O)c3ccc(C)c(C)c3)c(=O)c3ccccc32)cc1	-1.9%	.	.	2.0	.	20
49	CC(C)c1ccc(NC(=O)c2cc([N+](=O)[O-])ccc2N2CCOCC2)cc1	0.2%	.	-1%	0.5	-12%	-5
50	O=C(NC1CC(=O)N(c2cccc(F)c2)C1)c1ccc(S(=O)(=O)N2CCOCC2)cc1 (configuration not stated)	-1.1%	.	.	0.0	.	-14
51	Cc1cccnc1NC(=O)c1ccc2c(c1)NC(=O)C(C)S2 (configuration not stated)	0.9%	.	-2%[15.4 µM]	0.4	7%	22
52	C=CCN1C(=O)c2ccc(C(=O)N(C)CC(=O)Nc3cccc(F)c3)cc2C1=O	1.4%	.	0%	-0.5	9%	7
53	Cn1nc(-c2ccc(Cl)cc2)c2cc(C(=O)NCC3CCCO3)sc21 (configuration not stated)	4.3%	3.2	-17%	1.3	?	-3
54	CC(C)c1nnc(SCc2ccc(CSc3nnc(C(C)C)n3N)cc2)n1N	0.8%	-0.3	4%	-1.2	9%	-6
55	O=S(=O)(Nc1nc2ccc(Cl)cc2s1)c1cccs1	.	-1.0	?	1.1	-23%	-13
56	O=C(C1CCC(Cn2c(=O)[nH]c3ccccc3c2=O)CC1)N1CCN(c2ccccc2)CC1 (configuration not stated)	-1.1%	1.4	20%	-1.0	-7%	2
57	Cc1cc(C)cc(C(=O)NCCn2cc(SCC(=O)N3CCOCC3)c3ccccc32)c1	-1.5%	7.0	-41%[inhibitor]	-0.2	-9%	1
58	O=C(Oc1ccccc1-c1nnco1)c1ccccc1	5.2%	2.7	-8%	-1.2	-9%	3
59	Cn1c(=O)oc2cc(S(=O)(=O)Nc3cccc(C(=O)O)c3)ccc21	0.7%	0.2	-50%[inhibitor]	-0.8	4%	5
60	C=CCn1c(-c2cc(-c3ccc(C)cc3)nc3ccccc23)n[nH]c1=S	.	-1.5	6%	1.5	-8%	5

(cont.)
item	SMILES	ClpP mod	Menin MLL FP FL	gsp ag	TRPML1 ag	gsp antagonist	TRPML1 inh
61	N/C(Cc1ccc([N+](=O)[O-])cc1)=N\OC(=O)c1cccc(Br)c1	2.0%	1.4	1%	2.1	3%	-12
62	O=C(N/N=C/c1c[nH]c2ccc(Br)cc12)c1ccccn1	.	-1.3	5%[15.4 µM]	0.1	.	-4
63	Cc1cnc(NC(=O)c2sc3ccccc3c2Cl)s1	.	0.7	-11%[15.4 µM]	1.7	4%	3
64	CCCCn1c(=O)c(C(C)=O)c(O)c2ccccc21	-0.5%	0.0	-3%	0.4	0%	4
65	Cc1cccc(-c2nc(SCCCOc3cc(C)c(Cl)c(C)c3)n3[nH]c(=O)cc3n2)c1	?	.	.	-0.5	.	-4
66	Cc1ccc(/C=C/C(=O)Nc2ccc([N+](=O)[O-])cc2)o1	-0.5%	1.4	-1%	-0.2	-2%	2
67	CCc1nnc(NC(=O)CCc2c[nH]c3ccccc23)s1	.	-0.2	41%[15.4 µM]	0.3	3%	19
68	O=C(O)COc1ccc(Br)cc1/C=N/O	-2.3%	-1.7	0%	-0.3	-9%	11
69	Cc1ccc(C(C(=O)NC2CCCCC2)N(Cc2cccnc2)C(=O)C2COc3ccccc3O2)o1 (configuration not stated)	-3.5%	8.5	-4%	0.7	-14%	25
70	CCC(Oc1ccccc1)C(=O)NC1CCCCCC1 (configuration not stated)	0.6%	-0.2	28%	0.3	0%	36
71	CN(Cc1ccccc1)c1oc(-c2ccco2)nc1C#N	?	2.4	-35%[inhibitor]	-1.2	6%	28

Screening data as filed in PubChem BioAssay.
